# Screening data: PubChem BioAssay, National Center for Advancing Translational Sciences (NCATS)
# VDR inhibitor = vitamin D3 receptor (human) inhibition; AID 504847; Potency, µM, for inactives: max response, negative = inhibition, usual class: inhibitors; VDR-SRC2-3 peptide fluorescence polarization, 2 h; hit rate 0.93% among 400,000; active = well fitted inhibition curve with a large enough effect; inconclusive = small, poorly fitted or top-dose-only effect, or another doubt; inactive = no such curve, though single readings can be large or run the other way; note: series mostly up to about 120 µM
# Target sequence (P11473 whole entry, looked up): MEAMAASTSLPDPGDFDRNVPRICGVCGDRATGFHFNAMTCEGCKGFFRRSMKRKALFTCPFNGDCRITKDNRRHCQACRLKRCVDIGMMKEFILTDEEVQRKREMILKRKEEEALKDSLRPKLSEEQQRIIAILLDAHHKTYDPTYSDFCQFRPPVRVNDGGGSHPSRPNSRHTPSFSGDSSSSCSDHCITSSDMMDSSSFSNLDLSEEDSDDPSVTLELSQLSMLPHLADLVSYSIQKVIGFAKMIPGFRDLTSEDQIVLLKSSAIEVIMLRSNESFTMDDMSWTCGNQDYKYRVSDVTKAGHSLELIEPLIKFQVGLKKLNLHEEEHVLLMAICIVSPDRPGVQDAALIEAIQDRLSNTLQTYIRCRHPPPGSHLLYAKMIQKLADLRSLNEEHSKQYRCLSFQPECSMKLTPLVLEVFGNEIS
#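 FP read-out; VDR + SRC2-3 coactivator peptide; 23 nl compound by pintool; 2 h RT incubation; reagents held at 4 deg C, protected from light.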
# * = called active by the depositor; ? = inconclusive; & = joins results of further samples; [ ] = remark or other dose. % is set by controls: 0 for no effect and ±100 for the full control effect; potency is the fitted concentration of half-maximal effect. Some of the compounds tested; the hit share may differ from the screen's.
no.	mol	VDR inhibitor
1	NC(=O)c1cc2ccccc2o/c1=N\NC(=O)c1ccc(F)cc1	-14.2%
2	NC(=NC(=O)c1ccccc1)N1N=CCC1c1ccccc1 (stereo unspecified)	-1.8%
3	CCCNC(=O)c1ccc(CN2CCOCC2)cc1	-3.3%
4	Cc1ccccc1C(=O)OCc1cc(=O)n2nc(C3CC3)sc2n1	4.6%
5	CC1=NOC(=O)/C1=C\c1ccc2c(c1)OCO2	89.1µM*
6	COCC(C)n1c(-c2ccc3c(c2)NC(=O)CO3)csc1=Nc1ccc(OC(F)F)cc1 (stereo unspecified)	2.3%&11.1%
7	NNC(=O)c1ccc(-c2cccc([N+](=O)[O-])c2)o1	5.3%
8	Cn1cnnc1SCCOc1ccc(Cl)cc1	-18.9%
9	COC(=O)N1CCC[C@@]2(CCN(Cc3nccs3)C2)C1	-3.1%
10	COc1cccc(C(=O)N(Cc2cc3cc(C)ccc3[nH]c2=O)CC2CCCO2)c1 (stereo unspecified)	6.4%
11	COc1ccc(NC(=O)CN(C)C(=O)C23CC4CC(CC(C4)C2)C3)cc1	9.3%
12	CCOc1ccc(S(=O)(=O)N2CCCC(C(=O)Nc3cc(C)cc(C)c3)C2)cc1 (stereo unspecified)	-19.0%
13	COc1cc(NS(=O)(=O)c2ccc(NC(=S)NC(=O)C(C)(C)C)cc2)nc(OC)n1	3.2%
14	Cc1cccc(C)c1NC(=O)CNC(=O)c1cn(-c2ccccc2)nc1-c1ccccc1	-4.3%
15	COc1ccccc1N1CCN(C/C(O)=C(\C#N)c2nc(-c3ccccc3)cs2)CC1	-14.9%
16	Cc1ccc(C(=O)OCC(=O)NC2CCCCC2)o1	-2.7%
17	Cc1ccc2c(c1)NC(=O)CC(c1ccccc1)=N2	-9.5%
18	COc1ccc(Cn2c(C)nnc2-c2cnn(C)c2N)cc1OC	-2.9%
19	Cc1ccc(NC(=O)N2CCCC2C(=O)NCCC2=CCCCC2)cc1 (stereo unspecified)	1.1%
20	Cc1ccc(NC(=O)CN(C)C(=O)C(C)OC(=O)CNC(=O)c2ccc(Cl)c([N+](=O)[O-])c2)cc1 (stereo unspecified)	-8.4%
21	COc1ccc(C(=O)COC(=O)C(C)N2C(=O)C3C4CCC(C4)C3C2=O)cc1 (stereo unspecified)	-6.9%
22	CC(=O)OCCCNc1cc(SCc2ccco2)c2nonc2c1[N+](=O)[O-]	79.4µM*
23	CCn1c(=N)n(CC(=O)c2ccc(OC)cc2)c2ccccc21	21.4%
24	COc1cc(/C=N/NC(=O)c2cccc([N+](=O)[O-])c2)cc(OC)c1O	9.7%
25	COc1cccc(C2C(=O)N(C3CCCCC3)CC(=O)N2Cc2ccc(F)cc2)c1 (stereo unspecified)	1.7%
26	CCC(C)NC(=O)[C@@H]1CCCN1C(=O)C1CCN(S(=O)(=O)c2ccc(C)cc2)CC1 (stereo partly specified)	-12.0%
27	COc1cc(OC)cc(-c2sc3ccc(OC)cc3c2C#CCCO)c1	5.4%
28	CCN=C(NC#N)SCc1c(F)cccc1Cl	15.1%
29	Oc1c(C=NCc2ccncc2)sc2ccccc12	-8.9%
30	CNC(=S)NC(CC(=O)OC)c1ccc2c(c1)OCO2 (stereo unspecified)	12.5%
31	COc1ccccc1CNC(=O)C1CCN(S(=O)(=O)c2ccc(N3CCCC3=O)cc2)CC1	4.1%
32	CCOc1ccccc1C(=O)NCCCn1ccnc1	-22.8%
33	CCOc1ccc(-c2nc(SC(C(C)=O)C(=O)N(C)C)c3c(=O)n(C)c(=O)n(C)c3n2)cc1 (stereo unspecified)	17.7%
34	Cc1ccc2cccc(NC(=O)COc3ccccc3[N+](=O)[O-])c2n1	13.8%
35	O=C(O)CN(c1cccc(C(F)(F)F)c1)S(=O)(=O)c1ccccc1	-4.4%
36	COc1ccc(NC(=O)NC(C)c2ccc3c(c2)OCO3)cc1OC (stereo unspecified)	21.3%
37	COc1cc2c(cc1OC)CN(Cc1cc(=O)oc3cc(C)c(Cl)cc13)CC2	-14.9%
38	COC(=O)N1CCC2(CC1)CCN(c1ccncc1)CC2	8.4%
39	CC1(C(=O)N(CC(=O)NC2CCCC2)Cc2ccco2)CC(=O)N=C2C=CC=CN21 (stereo unspecified)	9.6%
40	CCCN(CC(=O)Nc1ccccc1C)C(=O)c1ccc(C2SCCS2)cc1	3.0%
41	CC(C(=O)Nc1ccc(S(=O)(=O)N2CCCC2)cc1)N(C)CC(=O)Nc1cccc(F)c1 (stereo unspecified)	7.4%
42	Cc1cccn2c(=O)nc(SCC(=O)Nc3ccc4c(c3)OCCO4)nc12	12.0%
43	O=C(Nc1ccc(C(=O)OCc2cc(=O)n3nc(C4CC4)sc3n2)cc1)c1cccc(Cl)c1	5.2%
44	Brc1cnc2nc(SC/C=C/c3ccccc3)[nH]c2c1	35.7%[activator]
45	Nc1cc2c(cc1C(=O)c1ccc(Cl)cc1)OCCO2	-19.2%
46	Cc1cccn2cc(CCNC(=O)Cc3cccs3)nc12	-6.5%
47	CCOC(=O)c1ccc(N2C(=O)CC(Sc3nnc(C)s3)C2=O)cc1 (stereo unspecified)	-2.6%
48	Cc1ccc(C(=O)NC(Cc2c[nH]c3ccccc23)C(=O)O)o1 (stereo unspecified)	-21.9%
49	CS(=O)(=O)N1CCC(Oc2cccc(C(=O)NCCCC3CCCC3)c2)CC1	1.0%
50	COc1ccccc1N1C(=O)CSC1=S	-3.1%

# More structures.
no.	mol	VDR inhibitor
51	Cc1ccc(CNc2cnn(C34CC5CC(CC(C5)C3)C4)c(=O)c2Cl)cc1	?
52	CCN(CC)CCCNC(=O)c1ccc(C)c(NC(=O)C2=C(C)OCCS2)c1	-6.4%
53	CN(C)C(=O)COc1ccc(Br)cc1	-3.1%
54	O=C(CSc1nc2ncc(Cl)cc2[nH]1)N1CCOCC1	7.3%
55	CC1=NN(c2ccc([N+](=O)[O-])cc2)C(=O)C1	-6.4%
56	COC(=O)c1ccccc1NC(=O)CSc1ncccn1	10.5%
57	Cc1ccc(C(=O)O)cc1NC(=O)c1ccc(Cn2nc(C)c(Cl)c2C)o1	-12.8%
58	CC(=O)OCC(=O)NCc1ccc2c(c1)OCO2	4.8%
59	COc1ccccc1/C=C/C=c1\sc2nc(=O)c(Cc3ccccc3)nn2c1=O	?
60	CCOC(=O)N1CCC(NC(=O)c2cnc3n(c2=O)CCS3)CC1	-12.2%

# The closing six records of the part above open the next one.
no.	mol	VDR inhibitor
55	CC1=NN(c2ccc([N+](=O)[O-])cc2)C(=O)C1	-6.4%
56	COC(=O)c1ccccc1NC(=O)CSc1ncccn1	10.5%
57	Cc1ccc(C(=O)O)cc1NC(=O)c1ccc(Cn2nc(C)c(Cl)c2C)o1	-12.8%
58	CC(=O)OCC(=O)NCc1ccc2c(c1)OCO2	4.8%
59	COc1ccccc1/C=C/C=c1\sc2nc(=O)c(Cc3ccccc3)nn2c1=O	?
60	CCOC(=O)N1CCC(NC(=O)c2cnc3n(c2=O)CCS3)CC1	-12.2%
61	COc1ccc(-c2nnn(Cc3nc(N)nc(N4CCOCC4)n3)n2)cc1OC	17.0%
62	CCOCCCNC(=O)C(NC(=O)CC1NC(=O)NC1=O)c1ccc(Cl)cc1 (stereo unspecified)	1.9%
63	C/C(=N\NC(=O)c1ccccc1)c1ccc(NC(=O)c2cccs2)cc1	-8.0%
64	CCOC(=O)C1=C(COC(=O)/C=C/c2ccc(C)o2)NC(=O)NC1C (stereo unspecified)	-2.0%
65	COCCNC(=O)C(=O)NNS(=O)(=O)c1ccc(Cl)cc1	-15.9%
66	C/C(=N\NC(=O)c1cccc(S(=O)(=O)N2CCCC2)c1)c1ccc(C)cc1	2.0%
67	COc1ccc(S(=O)(=O)Cc2ccc(C(=O)N3CC(C)CC(C)C3)o2)cc1 (stereo unspecified)	-1.6%
68	CC1CN(C(=O)[C@@H]2CCCN2S(=O)(=O)c2ccc(Cl)cc2)CC(C)O1 (stereo partly specified)	-14.8%
69	Fc1cccc(Cl)c1CSc1nnc(COc2cccc3cccnc23)o1	-5.0%
70	O=C(Nc1nc2ccc3ccccc3c2s1)c1ccc(N2CCCCC2)c([N+](=O)[O-])c1	-0.5%
71	CCOC(=O)N1CCN(c2nnnn2-c2ccccc2)CC1	4.5%
72	O=C(O)c1ccc(CNCc2ccccc2Cl)s1	-5.2%
73	N#Cc1cnn(Cc2ccc(Cl)cc2)c1N	13.1%
74	c1ccc(N=c2nc(-c3ccccc3)n(-c3ccccc3)s2)cc1	-8.7%
75	CC(C)C(=O)N(c1ccc2oc(=O)sc2c1)S(=O)(=O)c1cccs1	44.7µM*
76	CCOC(=O)C1C(O)=CC(=O)CC1c1ccccc1 (stereo unspecified)	-0.4%
77	O=S(=O)(Cc1ccccc1)c1nnnn1-c1ccccc1	35.5µM*
78	CCCN=C1N/C(=C\c2ccco2)C(=O)N1c1ccccc1	-1.4%
79	Cc1ccc(-n2nc3c4c(cccc4c2=O)-c2ccccc2-3)cc1	-11.6%
80	CCOC(=O)N1CCc2c(sc3c2c(=O)n(-c2ccc(F)cc2)c(=O)n3CC(=O)c2ccccc2)C1	-10.0%
81	CC(/C=N/n1c(-c2ccccc2)n[nH]c1=S)=C\c1ccco1	1.9%
82	O=Cc1ccc(OCC(=O)Nc2ccccc2-c2ccccc2)cc1	-7.9%
83	COc1ccc(CCC(=O)NCc2ccccc2Cl)cc1OC	-10.8%
84	Cc1ccc(C(=O)c2oc3ccccc3c2NC(=O)Cc2coc3ccc(C)cc23)cc1	0.7%
85	COc1cccc(N2CCN(C3CC(=O)N(c4ccc(Cl)c(Cl)c4)C3=O)CC2)c1 (stereo unspecified)	-0.5%
86	O=C(N/N=C/c1ccco1)c1cc(Br)ccc1OCc1ccccc1	-12.6%
87	Cc1ccc(CN2C(=O)CC(Nc3ccc(N4CCOCC4)cc3)C2=O)cc1 (stereo unspecified)	-0.9%
88	Cc1cccc(NC(=O)CSc2nc(C)c(CC(=O)c3ccc(Br)cc3)c(C)c2C#N)c1C	8.2%
89	CC(C)(C)C(=O)NC(=S)Nc1ccccn1	3.2%
90	Cc1ccccc1C(=O)NC1CCN(CC(=O)Nc2ccccc2)CC1	-4.3%
91	Cc1cccc(NC(=S)N2CCCC(c3nc4ccccc4[nH]3)C2)c1 (stereo unspecified)	-0.8%
92	CC(=O)c1ccc(N2CCN(C(=O)c3ccc4c(=O)n(-c5ccccc5)c(=O)[nH]c4c3)CC2)cc1	-9.3%
93	CCC(CC)C(=O)NCc1ccc(Cl)cc1	1.1%
94	COC(=O)c1ccc(CN2CCC(n3nccc3NC(=O)C3CC3)CC2)cc1	-15.4%
95	CC(C)(CC(=O)O)CC(=O)Nc1ccc(Oc2ccc(C(C)(C)C)cc2)nc1	-6.3%
96	Cc1sc2ncn(CC(=O)Nc3cccc(C(F)(F)F)c3)c(=O)c2c1S(=O)(=O)N1CCN(C)CC1	-13.9%
97	Oc1ccc(C[C@H]2CNC(=S)N2CC2CCCN2C[C@H](Cc2ccc(O)cc2)N2C[C@H](Cc3ccccc3)N(CC3CCCCCC3)C2=S)cc1 (stereo partly specified)	-4.0%
98	O=C(NNC(=O)c1cccnc1)Nc1ccccc1	-11.8%
99	CC(C)c1ccc(NS(=O)(=O)c2cccc3cccnc23)cc1	2.4%
100	Cc1c(CN2CCC(CO)(CCOc3ccccc3)CC2)c(=O)n(-c2ccccc2)n1C	-5.2%
101	COc1cccc(N2CCN(C(=O)CC(NC(=O)c3ccccc3)c3ccccc3)CC2)c1 (stereo unspecified)	-12.3%
102	Cc1nc(-c2ccccc2)sc1-c1nnc(C2CC2)o1	-5.6%
103	C/C(=N\Nc1nc(N)cc(Cl)n1)c1ccc(F)cc1	10.3%
104	CC(C)OC(=O)CSc1nnc(-c2ccccn2)n1N	-13.5%
105	C=CCn1c(O)c(N=NC(=O)CNC(=O)c2cccs2)c2ccccc21	9.3%
106	CCN(c1ccc(OC)cc1)S(=O)(=O)c1csc(C(N)=O)c1	-4.2%
107	Cc1sc2nc(SCC(=O)N3CCCCC3)[nH]c(=O)c2c1C	22.6%
108	C/C=C\C(=O)Nc1cccc(C2=NOC3(C2)C[C@H](C(N)=O)N(C(=O)[C@H]2CCC(=O)N2)C3)c1 (stereo partly specified)	-14.4%
109	CCn1c(SCc2ccc(C(=O)O)cc2)nnc1-c1ccc(Cl)cc1	-9.8%
110	O=C(c1nc2ccc(Cl)cn2c1CN1CCCC(CO)C1)N1CCc2ccccc2C1 (stereo unspecified)	-4.2%

# Of the compounds above, three have a tert-butyl group:
no.	mol	VDR inhibitor
13	COc1cc(NS(=O)(=O)c2ccc(NC(=S)NC(=O)C(C)(C)C)cc2)nc(OC)n1	3.2%
89	CC(C)(C)C(=O)NC(=S)Nc1ccccn1	3.2%
95	CC(C)(CC(=O)O)CC(=O)Nc1ccc(Oc2ccc(C(C)(C)C)cc2)nc1	-6.3%

# (more compounds)
no.	mol	VDR inhibitor
111	CC(C)(C)c1ccc(C(=O)Nc2cccc([N+](=O)[O-])c2)cc1	2.0%
112	Cc1cccc(-n2ncc3c(N4CCCC4)ncnc32)c1	-13.8%
113	COc1cc(C2C(C#N)=C(N)OC3=C2C(=O)CC(C)(C)C3)cc2c1OCO2 (stereo unspecified)	10.2%
114	CC(C)C(=O)N1CCN(c2ccc(NC(=O)c3cccs3)cc2)CC1	10.0%
115	C=CCn1c(SCC(N)=O)nc2sc3c(c2c1=O)CCC3	-9.1%
116	CCCN(CCC)S(=O)(=O)c1ccc(C(=O)Nc2cccnc2)cc1	-6.4%
117	COc1cccc(/C=C2\CCc3ccccc3C2=O)c1	-25.2%
118	O=C(CSC1CCCCC1)N1CCN(c2ccccc2)CC1	-18.6%
119	CCOc1ccc(N(CC(=O)NCCSCc2ccco2)S(=O)(=O)c2ccc(C)cc2)cc1	16.4%
120	O=C(NCc1ccccn1)c1ccc(NS(=O)(=O)c2ccccc2)cc1	-20.0%
121	O=c1cn[nH]c2ccccc12	-14.6%
